KCNQ2 inh – KCNQ2 channel blockers in CHO-K1 cells – cell-based, FluxOR thallium flux, B-score, primary screen (AID 2156); O88943; 20 min; hits give low values; only compounds with negative scores are shown here; some inactives read as strong as hits; B-score at 10 µM; 310,000 tested, 1.1% active;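 active = fluorescence ratio B-score at most minus 3 library SDs, with starting brightness B-score within 2 library SDs, cut at about -5.5 in these data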
Target sequence (O88943 whole entry, looked up): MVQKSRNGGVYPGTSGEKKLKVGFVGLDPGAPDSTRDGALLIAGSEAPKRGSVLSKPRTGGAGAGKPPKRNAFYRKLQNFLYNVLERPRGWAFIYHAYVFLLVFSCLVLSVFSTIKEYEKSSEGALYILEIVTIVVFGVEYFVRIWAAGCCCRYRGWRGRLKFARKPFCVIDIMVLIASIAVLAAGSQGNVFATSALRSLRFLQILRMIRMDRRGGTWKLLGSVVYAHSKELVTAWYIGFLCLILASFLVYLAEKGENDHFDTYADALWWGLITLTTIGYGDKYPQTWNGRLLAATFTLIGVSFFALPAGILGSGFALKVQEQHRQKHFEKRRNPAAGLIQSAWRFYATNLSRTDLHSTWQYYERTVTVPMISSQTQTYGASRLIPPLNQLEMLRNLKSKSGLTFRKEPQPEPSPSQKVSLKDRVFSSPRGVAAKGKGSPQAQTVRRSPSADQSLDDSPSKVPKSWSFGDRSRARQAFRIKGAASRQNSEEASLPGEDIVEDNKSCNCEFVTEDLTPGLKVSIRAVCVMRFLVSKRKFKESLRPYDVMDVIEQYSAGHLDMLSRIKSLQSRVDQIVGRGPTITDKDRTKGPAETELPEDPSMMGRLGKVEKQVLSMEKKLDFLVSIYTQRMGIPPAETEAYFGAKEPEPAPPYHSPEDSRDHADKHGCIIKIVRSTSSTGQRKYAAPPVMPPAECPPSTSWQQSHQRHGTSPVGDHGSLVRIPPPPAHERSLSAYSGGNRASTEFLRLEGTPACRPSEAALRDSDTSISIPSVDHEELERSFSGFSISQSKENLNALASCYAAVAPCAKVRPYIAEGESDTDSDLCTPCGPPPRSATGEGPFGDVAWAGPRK
KCNQ2 inh baseline – second read-out of KCNQ2 inh, no call of its own (marks repeat the call); B-score; measured here: initial fluorescence intensity artifact check;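 brightness before thallium and not channel activity; 0 = typical well and far values either way flag optical interference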
Numbers without * were called inactive; i = inactive. The list is partial; the hit share may differ from the screen's.

SMILES	KCNQ2 inh	KCNQ2 inh baseline
N#CC1=C(N)Oc2nc[nH]c(=O)c2C1c1cccs1 (stereo not given)	i	1.04
C=CCOc1ccccc1CN(CCc1ccccc1)C(=O)c1cccc(S(C)(=O)=O)c1	i	2.08
O=C(CN(c1cc(C(F)(F)F)ccc1Cl)S(=O)(=O)c1ccccc1)NCc1cccnc1	i	0.23
CC(c1nnc(SCC(=O)NC(=O)NCc2ccco2)n1-c1ccc(Cl)cc1)N(C)C (stereo not given)	i	1.95
Cc1ccc2oc(=O)c(/C=C(\O)c3sc(C)nc3C)nc2c1	i	-1.61
O=S(=O)(c1ccccc1)N1CCN(S(=O)(=O)c2ccc(F)cc2)CC1	i	1.37
CCC(C)NC(=O)c1ccc(NC(=O)C2=C(C)OCCS2)cc1 (stereo not given)	i	0.86
O=C(NCCN1CCOCC1)c1ccc2c(c1)N(Cc1ccccc1F)C(=O)c1ccccc1S2(=O)=O	i	0.76
COc1ccc(Oc2ncccc2[N+](=O)[O-])cc1	i	2.1
CC1=NN(c2ccccc2)C(=O)/C1=C/N(C)C	i	0.26
O=C(O)c1ccccc1SCC(=O)N1c2ccccc2Sc2ccccc21	i	-0.19
COc1ccc(CCn2c(=O)c3cccnc3n(Cc3cccc([N+](=O)[O-])c3)c2=O)cc1OC	i	-0.06
CC1CCN(CCCCOc2ccccc2-c2ccccc2)CC1	i	0.08
Cc1ccccc1S(=O)(=O)c1c(C)cc(C)n(C)c1=O	i	-0.04
COc1ccccc1N1CCN(/N=C\c2ccccc2)CC1	i	0.2
Cn1cnc2c(NCc3ccco3)ncnc21	-6.95*	0.18*
COc1ccc(CCNC(=O)c2cc3c(=O)n(C)c4ccccc4c3n2C)cc1OC	i	-0.01
O=C(N/N=C\c1cn[nH]c1-c1ccccc1)c1ccc([N+](=O)[O-])cc1	i	-0.1
O=C(CN1C(=O)c2ccccc2S1(=O)=O)c1ccc(OC(F)F)cc1	i	-1
O=C(COc1ccccc1)N1CCc2ccccc21	i	-0.83
O=C(NS(=O)(=O)Oc1ccccc1F)OC[C@@H]1CCCN2CCCCC12 (stereo not given in full)	i	0.1
COc1ccccc1/C(C)=N/NC(=S)NCc1ccccc1	i	-0.44
COc1ccc(/C=N/NC2=NCCCCC2)c(OC)c1	i	1.01
CN1CCN(C(=O)c2ccc(F)c(F)c2)CC1	i	0.16
CC(=O)Nc1cccc(NC(=O)c2cc(-c3cccnc3)nc3ccc(Br)cc23)c1	i	-1.94
O=C(O)/C=C/C(=O)NNc1ncnc2ccccc12	i	-0.48
CCCCN(C)C(=O)c1nc2ccccn2c1CN(C)Cc1csc(C)n1	i	0.03
Cc1cc(C(F)(F)F)c(C#N)c(Sc2ccccc2)n1	i	0.88
COCCN(CCOC)c1nc(-c2ccc(Cl)cc2)nc2ccccc12	i	0.55
Cc1onc(-c2ccccc2)c1C(=O)N/N=C/c1c[nH]c2ccccc12	i	-1.94

A draw from above in order of length of the SMILES, descending:
SMILES	KCNQ2 inh	KCNQ2 inh baseline
CC(=O)Nc1cccc(NC(=O)c2cc(-c3cccnc3)nc3ccc(Br)cc23)c1	i	-1.94
O=C(NS(=O)(=O)Oc1ccccc1F)OC[C@@H]1CCCN2CCCCC12 (stereo not given in full)	i	0.1
Cc1cc(C(F)(F)F)c(C#N)c(Sc2ccccc2)n1	i	0.88

Carrying on.
SMILES	KCNQ2 inh	KCNQ2 inh baseline
COCCN(C(=O)CSc1nnc(Nc2ccccc2F)s1)c1c(N)n(Cc2ccccc2)c(=O)[nH]c1=O	i	0.28
COCc1nn2c(N)c(-c3ccccc3)cnc2c1-c1ccccc1	i	-0.03
CCOc1ccc(-c2nc3n(c(=O)c2C#N)CCCS3)cc1	i	0.97
Cc1ccc(C(=O)N/N=C\c2ccc(-c3ccc([N+](=O)[O-])cc3)o2)cn1	i	0.19
CCc1ccc2[nH]c(=O)c(CN(Cc3ccc(F)cc3)C(c3nnnn3CCN3CCOCC3)C(C)C)cc2c1 (stereo not given)	i	-0.39
CCOC(=O)c1c(NC(NC(C)=O)C(Cl)(Cl)Cl)sc2c1CCCC2 (stereo not given)	-6.48*	0.21*
CN(C)CCCOC(=O)CCc1ccccc1	i	2.27
CCN(CC)C(=O)c1cc(S(=O)(=O)N2CCCCC2)c[nH]1	i	0.84
CCOC(=O)c1ccc(NC(=O)C(=O)NCc2ccccn2)cc1	i	0.43
Cc1cccc(NC(=O)CSc2n[nH]c(-c3ccncc3)n2)c1	i	2.84

In the list so far, 6 contain an aryl methoxy group.
SMILES	KCNQ2 inh	KCNQ2 inh baseline
COc1ccc(Oc2ncccc2[N+](=O)[O-])cc1	i	2.1
COc1ccc(CCn2c(=O)c3cccnc3n(Cc3cccc([N+](=O)[O-])c3)c2=O)cc1OC	i	-0.06
COc1ccccc1N1CCN(/N=C\c2ccccc2)CC1	i	0.2
COc1ccc(CCNC(=O)c2cc3c(=O)n(C)c4ccccc4c3n2C)cc1OC	i	-0.01
COc1ccccc1/C(C)=N/NC(=S)NCc1ccccc1	i	-0.44
COc1ccc(/C=N/NC2=NCCCCC2)c(OC)c1	i	1.01

Next part.
SMILES	KCNQ2 inh	KCNQ2 inh baseline
Cc1nn(Cc2nc(-c3cccs3)no2)c(C)c1Br	i	0.04
CC(NC(N)=O)C(=O)OCc1ccc(Cl)cc1Cl (stereo not given)	i	0.11
COC(=O)c1cccc2c1NC(=O)C2=O	i	3.24
CC(C)(O)C#Cc1ccc(C(=O)N2CCCC(CNS(=O)(=O)c3cccs3)C2)o1 (stereo not given)	i	0.29
NC(=O)c1ccc(N2CCN(c3ccccc3F)CC2)c([N+](=O)[O-])c1	i	-1.06
COc1ccc(NC(=O)CSc2nncc3ccccc23)cc1	i	2.17
N[C@@H](Cc1cc(I)c(Oc2ccc(O)c(I)c2)c(I)c1)C(=O)O	i	0.02
O=C(NCC1CCCO1)c1ccc(CS(=O)(=O)c2ccc(Cl)cc2)o1 (stereo not given)	i	1.76
Fc1ccc(Cn2nnnc2C(c2cccs2)N2CCN(C3CCCCC3)CC2)cc1 (stereo not given)	i	0.75
O=c1c(N2CCCCC2)coc2ccccc12	i	2.06
COc1ccc(C(=O)Nc2ccc(Cl)cn2)cc1Cl	i	1.48
O=C(Nc1c2c(nn1-c1ccccc1)CS(=O)C2)c1ccc(S(=O)(=O)N2CCOCC2)cc1 (stereo not given)	i	-0.7
Cc1nc2ccccc2n1CCc1nc2c3ccccc3nc(=S)n2[nH]1	i	-0.68
Fc1ccc(-c2nnc(CN3CCN(c4ncc(C(F)(F)F)cc4Cl)CC3)o2)cc1	i	-0.15
COC(=O)c1[nH]c2ccc(C)cc2c1NC(=O)CN1CCc2cc(OC)c(OC)cc2C1	i	-1.41
COc1cccc(OCc2cc(C(=O)N3CCNC(=O)C3Cc3ccccc3)no2)c1 (stereo not given)	i	-1.14
Cc1cc(C)cc(Oc2coc3cc(O)ccc3c2=O)c1	i	-0.85
COc1cc(/C=N\NC(=O)CNC(=O)C2COc3ccccc3O2)ccc1O (stereo not given)	i	-0.01
CCOc1ccc(N(CC(=O)Nc2ccccc2OCC)S(=O)(=O)c2c(C)noc2C)cc1	i	0.14
CCCCNC(=S)N=Nc1c(O)[nH]c2ccccc12	i	3.83
COc1ccccc1N1CCN(/N=C/C(Cl)=C/c2ccccc2)CC1	i	0.24
O=C(O)CNC(=O)C(Cc1ccccc1)NC(=O)OCc1ccccc1 (stereo not given)	i	-0.46
CCOC(=O)c1c(NC(=O)CCl)sc(C(=O)N(CC)CC)c1C	i	0.01
Cc1ccc(N(CCC(=O)NC(C)(C)C)S(=O)(=O)c2ccc(C)cc2)cc1	i	0.72
CCCCN1C(N)=NC[C@@H]1CC1CCCCC1	i	0.22
CC[C@@H](C)C(NC(=O)OC(C)(C)C)c1cn([C@@H](CCCCNC(=O)OC(C)(C)C)C(=O)N2CCN(C(=O)OC(C)(C)C)CC2)nn1 (stereo not given in full)	i	-0.2
CN(Cc1ccccc1F)C(=O)c1sccc1-c1ccccc1	i	-1.09
COc1ccc(-c2noc(CN3CCN(c4ccccc4)CC3)n2)cc1	i	-2.1
CC1CCCCN1C(=O)CCn1c(=S)oc2ccccc21 (stereo not given)	i	-1.46
COCCNC(=S)NNc1cccc(C(=O)O)c1	i	0.02
CCOC(=O)Cn1c(=O)oc2cc(S(=O)(=O)N3CCCC(C)C3)ccc21 (stereo not given)	i	0.48
O=C(Cc1ccccc1)Nc1cccc(C(=O)N/N=C/c2ccco2)c1	i	0.87
COc1ccccc1NC(=O)C(=O)NCC1CCCN1S(=O)(=O)c1cccs1 (stereo not given)	i	0.08
Cn1nnnc1Sc1ccc([N+](=O)[O-])cc1Cl	i	0.42
CN1CCN(C(=O)/C=C/c2ccc3c(c2)OCO3)CC1	i	-2.21
CCCCn1c(SCC(=O)OCC)nc2c(sc(=S)n2-c2ccccc2OC)c1=O	i	1.09
COc1ccc2c(c1)C(=O)N(c1ccc(C)cc1C)C(=O)C2(C)C	i	2.72
CC12CC(NC(=O)N1c1ccc(C(=O)N3CCN(c4ccc(F)cc4)CC3)cc1)c1ccccc1O2 (stereo not given)	i	1.46
CCCC(=O)NC(=S)Nc1cccc(Cl)c1N1CCCC1	i	0.58
C#CCSc1nnc(-c2cccc3ccccc23)o1	i	-0.59

Next part, starting with the last 2 of the part before.
SMILES	KCNQ2 inh	KCNQ2 inh baseline
CCCC(=O)NC(=S)Nc1cccc(Cl)c1N1CCCC1	i	0.58
C#CCSc1nnc(-c2cccc3ccccc23)o1	i	-0.59
COc1ccc2c(c1)c(C(=O)N/N=C/c1cn(C)c3ccccc13)c(C)n2C	i	0.34
COc1cc2c(cc1OC)CN(C(=O)c1ccc(OC)c(S(=O)(=O)N3CCOCC3)c1)CC2	i	0.04
Cn1nnnc1SCC(=O)N1CCN(c2cccc(Cl)c2)CC1	i	0.5
Cc1ccc2c(c1)CCCN2C(=O)c1ccc2c(c1)OCO2	i	0.48
CN(C)CCCN(C(=O)c1ccc(Br)s1)c1nc2cc3c(cc2s1)OCCO3	i	-1.51
CC(C)(C)OC(=O)C(Cc1ccc(OC(C)(C)C)cc1)NC(=O)CNC(=O)CNC(=O)OCc1ccccc1 (stereo not given)	i	0.21
Cc1nc2nc3c(cn2n1)C(=O)CC(C)(C)C3	i	1.41
Cc1ccc(-c2nn(-c3ccccc3)cc2C(=O)N2CCOCC2)cc1C	i	-1.04
O=C(c1ccc(Cl)cc1)N1CCN(C(=O)c2ccco2)CC1	i	1.75
CCOC(=O)C1=C(O)C(=O)NC(c2ccccc2)=C(OC2CCCCC2)C1	i	0.76
Cc1cc(OCC(=O)Nc2cc(S(=O)(=O)N3CCOCC3)ccc2N2CCCC2)ccc1C(C)C	i	1.48
COc1ccc(O)c(-c2cc(C(F)(F)C(F)F)nc(-c3ccccc3)n2)c1	i	-0.13
CSc1cccc(NC(=S)Nc2ccc(F)cc2)c1	i	-0.6
CCC(C)(C)c1ccc(Oc2ccc(N)cc2)cc1	i	-2.27
Cc1cccc(Cn2c(SCCO)nc3c2c(=O)n(C)c(=O)n3C)c1	i	-1.3
Cc1ccc(S(=O)(=O)N2CCN(C(=O)c3ccccn3)CC2)c(C)c1	i	-0.78
COc1ccccc1NC(=O)c1ccc(Cl)c(S(=O)(=O)N2CCCCC2)c1	i	-0.29
CCN1CCN(S(=O)(=O)c2c[nH]c(C(=O)OC)c2)CC1	i	-0.57
C=C1CCN(C(Cc2ccccc2)C(=O)OC)S(=O)(=O)c2ccc(F)cc21 (stereo not given)	i	0.33
CCOC(=O)N/N=C/c1ccc(N(CC)CC)cc1O	i	-0.27
O=C(COc1ccc(/C=N/NC(=O)c2ccc(O)cc2)cc1)Nc1cccc([N+](=O)[O-])c1	i	1.22
Cc1ccccc1NC(=O)CSc1nnc(C)c(=O)[nH]1	i	2.92
CCCCCC(=O)Nc1ccc(N2CCOCC2)c(S(=O)(=O)Nc2ccc(OC)cc2)c1	i	-0.21
CC1=NNC(=O)C1C(c1ccc(Cl)cc1)C(C#N)C#N (stereo not given)	i	-0.99
COC(=O)c1cn(C(=O)c2ccc(C)cc2C)c2ccccc12	i	0.39
C/C(=N\OCc1nc2ccccc2c(=O)n1/N=C/c1cc(C)cc([N+](=O)[O-])c1O)c1ccccc1	-8.31*	0.73*
COc1ccc(NC(=O)C2=CC(c3ccc(OC)cc3)=NS(=O)(=O)N2C)cc1	i	0.04
Cn1c(Cn2c(=O)sc3ccccc32)nnc1SCC(=O)NCCc1ccccc1	i	-0.34
Cc1ccc(/C=C/C(=O)O)cc1S(=O)(=O)N(C)CCO	i	2.12
C(#Cc1ccccc1)Cn1nnc2ccccc21	i	0.14
N#CCC(=O)Nc1ccc(C(=O)OCC(=O)Nc2ccccc2Sc2ccccc2)cc1	i	0.58
COc1ccc(C)cc1NC(=O)CSc1ccc(-c2cccnc2)nn1	i	0.8
CCN(CC)S(=O)(=O)c1ccc(N2CCCC2)c(NS(=O)(=O)c2cccs2)c1	i	1.27
CCc1nnc(NS(=O)(=O)c2ccc(N=Cc3c(C)[nH]n(-c4ccc(C)c(C)c4)c3=O)cc2)s1	i	-0.48
Cc1ccc(NC(=O)c2cccc(OCc3c(C)noc3C)c2)cc1S(=O)(=O)Nc1ccccc1Cl	i	-1.06
Cc1oc2c(C)c3oc(=O)c(CCC(=O)NCCCN4CCCC4=O)c(C)c3cc2c1C	i	-1.08
C/C(=N\NC(=O)C1CC1)c1ccccc1O	i	0.18
COc1cccc(-c2cc(C(=O)Nc3cccnc3Cl)no2)c1	i	-0.8
O=C(O)/C=C/C(=O)N(Cc1ccc2c(c1)OCO2)C1CC(=O)N(CCc2ccccc2)C1=O (stereo not given)	i	0.02
CC(C)(C)c1cc(C(=O)NN)n(Cc2ccc(F)cc2)n1	i	-0.86
CC(=O)c1c(C)[nH]c(C(=O)Nc2cccc(S(=O)(=O)N3CCOCC3)c2)c1C	i	-1.72

Source: PubChem
